# From PubChem
# GALR2 agonist: activates the human galanin receptor 2; 140,000 compounds, 0.48% hits; AID 803; activation, %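 (tested at 5 µM)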; GALR2-expressing cells, agonist activation read-out;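 active = above mean plus 3 SD of all compounds, about 5% in these data, not always enough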;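 note: 0% = vehicle buffer wells and 100% = reference agonist at full effect; tested in CHO reporter cells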
# Target sequence (O43603 whole entry, looked up): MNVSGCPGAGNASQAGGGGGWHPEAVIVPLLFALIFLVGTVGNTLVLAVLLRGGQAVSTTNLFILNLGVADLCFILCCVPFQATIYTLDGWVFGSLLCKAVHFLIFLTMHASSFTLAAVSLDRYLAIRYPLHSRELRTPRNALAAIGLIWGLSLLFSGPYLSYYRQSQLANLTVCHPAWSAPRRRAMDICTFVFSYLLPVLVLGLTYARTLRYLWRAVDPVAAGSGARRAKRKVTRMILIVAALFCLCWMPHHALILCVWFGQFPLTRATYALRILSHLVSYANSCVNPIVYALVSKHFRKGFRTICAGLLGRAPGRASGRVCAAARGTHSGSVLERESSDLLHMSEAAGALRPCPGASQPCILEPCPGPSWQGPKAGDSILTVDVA
# HSV replic up: increases HSV replication in cells. maximum fold increase. 220,000 compounds, 0.005% hits. HSV replication augmentation in cells, fold increase. AID 1956;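 active = peak rise of 1.5-fold or more in the series; inconclusive = self-fluorescent or not available for retest; tested in PC3 cells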;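 note: first round at 10 µM; read as green reporter fluorescence; hits show the peak of a series up to 25 µM; 1 = signal of infected wells without compound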
# INS promoter inh: TRM-6 insulin promoter activity inhibition | 130,000 compounds, 0.9% hits | inhibition, % at 2 µM | AID 1273 | TRM-6 cells (human fetal islet line), insulin promoter-eGFP reporter, imaging; reporter expression induced with tamoxifen;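 active = inhibition above the mean plus 3 SD, with well images judged a real hit on visual review, cut at about 60% in these data, passing the limit was not always enough; inconclusive = inhibition over the cutoff but images rejected on review; inactive = inhibition not above the cutoff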
# RGS16-Gao: RGS16-Galphao interaction regulator (human) | O15492+P09471 | bead-based flow cytometry RGS16-Galphao binding, fluorescence; actives lie on both sides | binding response (% of control), % at 10 µM | 220,000 compounds, 0.38% hits | AID 1441;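 active = below 25% or above 175%, edge rows of some plates excepted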;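 note: Galphao activated by GDP with aluminum fluoride before binding; 100% = wells without compound and 0% = beads without RGS; some results beyond the cut were filed as inactive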
# Target sequence (O15492 whole entry, looked up): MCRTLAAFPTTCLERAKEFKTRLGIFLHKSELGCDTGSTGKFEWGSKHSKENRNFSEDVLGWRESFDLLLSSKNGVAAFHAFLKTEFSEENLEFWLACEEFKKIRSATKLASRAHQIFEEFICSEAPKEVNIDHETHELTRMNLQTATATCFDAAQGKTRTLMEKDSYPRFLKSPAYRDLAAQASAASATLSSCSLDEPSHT
# Target sequence (P09471 whole entry, looked up): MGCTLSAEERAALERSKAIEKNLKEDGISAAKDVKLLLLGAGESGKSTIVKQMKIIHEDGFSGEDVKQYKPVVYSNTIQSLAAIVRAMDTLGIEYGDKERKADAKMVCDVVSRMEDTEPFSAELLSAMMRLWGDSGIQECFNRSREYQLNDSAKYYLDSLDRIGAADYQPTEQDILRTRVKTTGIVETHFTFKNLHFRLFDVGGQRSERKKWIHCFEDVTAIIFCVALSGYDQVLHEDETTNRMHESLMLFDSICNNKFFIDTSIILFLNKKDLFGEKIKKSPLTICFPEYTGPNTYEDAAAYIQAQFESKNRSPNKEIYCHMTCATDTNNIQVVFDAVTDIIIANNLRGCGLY
# PKD1 kinase inh: inhibitors of human PKD1 kinase. Q15139. PKD1 kinase fluorescence polarization assay. inhibition, %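 (about 10 µM by stock and volumes)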. 200,000 compounds, 0.056% hits. AID 797;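 active = inhibition of 50% or more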;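 note: controls were vehicle for no effect and a reference inhibitor for full effect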
# INS promoter inh cell count: recorded beside INS promoter inh, whose call it bears; normalized cell count, %; measured here: cell count, toxicity; reference of the scale not given here;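 cells exposed to compound for 48 h; stained nuclei by imaging scaled within each plate; lower means fewer cells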
# HSV replic up primary fold: recorded beside HSV replic up, whose call it bears; fold increase; compound at 10 µM; measured here: primary screen fold increase 10 uM; tested in PC3 cells;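 GFP signal in the first replicate; 1 = infected wells without compound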
# Starred values were filed as active, the others as inactive; i = inactive; ? = inconclusive; . = not tested or not shown. Compounds were not picked by outcome; any-hit rate near 1.1%.
Compound	GALR2 agonist	HSV replic up	HSV replic up primary fold	INS promoter inh	INS promoter inh cell count	RGS16-Gao	PKD1 kinase inh
CC(Sc1ccccc1)C(=O)N/N=C/c1cccnc1 (stereo unspecified)	.	i	1	.	.	108	-5
O=C(c1ccc(Cl)cc1[N+](=O)[O-])N(Cc1ccccc1)Cc1ccccc1	-1.1	i	1	-38	97	75	-11
O=C1OCCN1C(=O)[C@H]1[C@H](c2ccc(F)cc2)C(c2ccc(F)cc2)=NN1c1ccc(Br)cc1	6.7*	i	0.86	-18	107	101	0
Nc1nnc(SCC(=O)OCC(=O)Nc2ccc(Br)cc2F)s1	.	i	0.99	36	192	110	-1
N#CC1=C(N)Nc2nc3ccccc3n2C1c1ccc(F)cc1 (stereo unspecified)	-0.4	i	0.89	.	.	98	1
O=C(O)CNC(=O)c1ccc(Sc2ccccc2)c([N+](=O)[O-])c1	.	i	0.94	-40	96	100	2
COC(=O)Nc1ccc(S(=O)(=O)N2CCC(C(=O)N(C)C3CCCCC3)CC2)cc1	.	i	0.94	8	98	114	-8
COc1ccc(/C(C)=N/Nc2ccc(F)cc2F)c(O)c1	.	i	0.92	.	.	99	0
COc1ccc(C(NC(=O)c2ccco2)c2ccc(OC)c(OC)c2)cc1OC	-3.1	i	0.79	.	.	99	-1
COc1ccc(-c2csc(NC(=O)C3CC(=O)N(Cc4ccco4)C3)n2)cc1 (stereo unspecified)	.	i	0.96	42	97	105	-3
COC(=O)c1ccc(C2C3=C(Nc4nnnn42)c2ccccc2OC3)cc1 (stereo unspecified)	0.4	.	.	-15	86	95	4
C/C(N)=C(/C#N)C(=O)COC(=O)CNS(=O)(=O)c1ccc(F)c(F)c1F	.	i	0.94	.	.	102	1
O=C(CSc1nnc2ccccn12)NCCc1ccc(Cl)cc1	.	i	0.98	.	.	99	-4
Cc1ccc(C(=O)Nc2c(-c3cccs3)c(=O)c3ccccc3n2C)cc1	-1.0	i	0.97	-25	109	103	4
CC1(C)OC(C)(C)/C(=C/Nc2ccc(O)cc2)C1=O	-1.6	i	0.91	19	67	95	-10
CCCn1c(SCC(=O)NC2CCCCC2)nnc1-c1ccncc1	-0.4	i	1	-25	120	145	-4
CC(C)(C)c1ccc(OCC(=O)N/N=C/c2cc(Br)ccc2OC(=O)c2ccco2)cc1	-2.1	.	.	.	.	104	-1
CCOC(=O)Cc1ncccc1C(=O)Nc1ccc(Oc2ccccc2)cc1	.	i	0.97	.	.	102	8
Cc1nn(C)c(Oc2ccc(Cl)cc2)c1C(=O)O	-0.4	i	0.78	21	115	102	0
COc1ccc(NC(=O)CSc2ccc(F)cc2)cc1S(=O)(=O)N1CCCCC1	-2.3	i	0.93	-38	68	102	7
O=C(CSc1nnnn1Cc1ccccc1)c1ccccc1	-0.7	i	0.86	.	.	103	1
COc1cc(CC(=O)NCc2cccs2)cc(OC)c1OC	-2.5	i	0.97	27	74	104	-4
CNC(=S)Nc1cc(Cl)ccc1Oc1ccccc1	-1.2	i	0.9	27	101	115	-4
Cc1nc(Cl)c(C(=O)Nc2cccc(F)c2)c(C)c1Cl	.	i	1	13	118	94	-7

# Already shown: entries from further up.
Compound	GALR2 agonist	HSV replic up	HSV replic up primary fold	INS promoter inh	INS promoter inh cell count	RGS16-Gao	PKD1 kinase inh
CC(C)(C)c1ccc(OCC(=O)N/N=C/c2cc(Br)ccc2OC(=O)c2ccco2)cc1	-2.1	.	.	.	.	104	-1
CCOC(=O)Cc1ncccc1C(=O)Nc1ccc(Oc2ccccc2)cc1	.	i	0.97	.	.	102	8
Cc1nn(C)c(Oc2ccc(Cl)cc2)c1C(=O)O	-0.4	i	0.78	21	115	102	0

# More entries follow:
Compound	GALR2 agonist	HSV replic up	HSV replic up primary fold	INS promoter inh	INS promoter inh cell count	RGS16-Gao	PKD1 kinase inh
COc1ccc2ccccc2c1C1CC(=O)N2CN(C3CCCCC3)CSC2=C1C#N (stereo unspecified)	-2.4	i	0.86	.	.	67	3
COc1ccc(C2=NN(C(=O)CCC(=O)O)C(c3cccs3)C2)cc1 (stereo unspecified)	.	i	1	0	157	104	-4
O=C(CN1CCC(N2CCCCC2)CC1)N1CCOCC1	.	i	0.94	.	.	97	1
O=C(NC(=S)Nc1ccc(N2CCOCC2)c(Cl)c1)c1sc2ccccc2c1Cl	-0.1	i	1.1	.	.	99	5
CC(C)c1onc(C(=O)N2CCN(C(c3ccccc3)c3ccccc3)CC2)c1[N+](=O)[O-]	-0.6	.	.	-400	3	63	-9
CC1=NN(c2nc(-c3ccc(C#N)cc3)cs2)C(=O)C1	.	i	0.97	.	.	102	8
CC1=NC(=O)C(N=Nc2ccccc2)N1c1ccccc1 (stereo unspecified)	-1.4	i	1	33	136	108	-1
Cc1ccc(C(C(=O)NC2CCCC2)N(Cc2ccco2)C(=O)CCC(=O)Nc2ccccn2)cc1 (stereo unspecified)	-3.2	i	1	-71	103	94	-3
CC(NS(=O)(=O)c1ccccc1)C1COc2ccccc2O1 (stereo unspecified)	-2.4	i	0.97	38	110	103	-2
O=C(NOC(=O)c1ccccc1)c1ccccc1	.	i	1	.	.	119	.
CCOc1ccccc1NC(=O)COC(=O)Cc1ccc(-c2ccccc2)cc1	0.4	i	0.95	.	.	99	-4
O=C1CC(N2CCN(Cc3ccccc3)CC2)C(=O)N1c1ccc2c(c1)OCCO2 (stereo unspecified)	-0.6	i	1	-31	130	97	-4
COc1ccccc1-n1c(-c2ccc(NS(C)(=O)=O)cc2)n[nH]c1=S	-3.0	i	0.95	-26	82	99	-2
CC1Cc2ccccc2N1S(=O)(=O)c1cccc(C(=O)NCCCO)c1 (stereo unspecified)	0.8	i	1.1	.	.	101	-4
Nc1cc(N2CCCCC2)c([N+](=O)[O-])cc1Cl	-0.3	i	0.89	.	.	109	-6
Cc1ccc(-c2nc(N3CCOCC3)sc2C(=O)N2CCCCC2)cc1	-1.9	.	.	.	.	84	-3
O=C(NCc1ccco1)c1cccc(F)c1	8.3	i	1.2	44	55	94	2
CC(=O)Nc1ccc(/C=C(\C#N)C(=O)NC2CCCCC2C)cc1 (stereo unspecified)	.	i	0.82	.	.	93	-2
C[C@]12CC[C@@H]3c4ccc(O)cc4CC[C@H]3[C@@H]1C[C@@H](O)[C@@H]2O[C@@H]1O[C@H](C(=O)O)[C@@H](O)[C@H](O)[C@H]1O	-1.0	i	0.96	32	104	99	-6
Cc1c(O)cc2c(c1O)C(=O)CC(c1ccccc1)O2 (stereo unspecified)	.	i	0.86	.	.	102	.
COc1ccc(C(=O)NNS(=O)(=O)c2ccccc2)cc1	0.1	i	0.99	.	.	103	-4
CCn1c(CNc2ccc(F)cc2)nnc1SCC(=O)Nc1ccc(OC)cc1	-0.6	i	0.87	-300	87	99	-11
Cn1c(C(C#N)C(=O)c2sc3ccccc3c2Cl)nc2ccccc21 (stereo unspecified)	-1.9	i	0.9	11	128	98	-4
COc1cc(/C=N/NC(=S)Nc2cccc(C(=O)O)c2)cc(OC)c1OC	-1.8	i	1.1	-41	38	103	3

# Three of the compounds above, with values under each structure:
# Below each compound: GALR2 agonist, HSV replic up, HSV replic up primary fold, INS promoter inh, INS promoter inh cell count, RGS16-Gao, PKD1 kinase inh
> COc1ccc(C(=O)NNS(=O)(=O)c2ccccc2)cc1
 : 0.1, i, 0.99, ., ., 103, -4
> CCn1c(CNc2ccc(F)cc2)nnc1SCC(=O)Nc1ccc(OC)cc1
 : -0.6, i, 0.87, -300, 87, 99, -11
> Cn1c(C(C#N)C(=O)c2sc3ccccc3c2Cl)nc2ccccc21 (stereo unspecified)
 : -1.9, i, 0.9, 11, 128, 98, -4

# (list continues)
Compound	GALR2 agonist	HSV replic up	HSV replic up primary fold	INS promoter inh	INS promoter inh cell count	RGS16-Gao	PKD1 kinase inh
Cc1nc(CC(=O)NNS(=O)(=O)c2ccc3ccccc3c2)cs1	-0.7	i	0.99	-11	118	104	-8
Cc1ccc(S(=O)(=O)Oc2ccc(/C=C(/NC(=O)c3ccccc3)C(=O)NCCC(=O)O)cc2)cc1	.	i	0.95	-44	82	96	-3
O=C(OCc1nnc(-c2ccccc2)o1)c1ccco1	-0.3	i	1	-43	122	103	6
COCCCNCCCCOc1ccc(Br)cc1C	0.1	i	0.74	-54	55	106	-5
CCCCNC1C(CC)C(CCC)C(C#N)(C#N)C1(C#N)C#N (stereo unspecified)	-0.9	i	0.95	.	.	104	18
CC(OC(=O)Cn1c(C(F)(F)F)nc2ccccc21)C(=O)N1CCCc2ccccc21 (stereo unspecified)	-0.1	i	0.98	-25	112	106	-10
C/C(Cl)=C\CSc1nnc2n(N)c(=O)c3ccccc3n12	-2.7	i	0.99	-30	120	108	-11
CCOC(=O)Cc1csc(NC(=O)CSc2nnc(C3CC3)n2C)n1	-0.7	i	0.98	6	96	82	-11
Cc1ccnc(NC(=O)c2cccc(NC(=O)COc3ccccc3)c2)c1	-1.4	i	0.66	.	.	104	-6
CCOC(=O)c1c(NC(=S)Nc2ccc(Cl)cc2)sc2c1CCN(C)C2	0.7	?	.	-163	101	96	-10
COCCCn1c(SCc2ccc(OC)cc2)nc2cc(OC)c(OC)cc2c1=N	-2.5	i	0.83	-7	126	73	-6
COc1ccc2c(c1)O/C(=C\c1sccc1C)C2=O	-0.8	i	1.2	-26	122	104	7
CCN(CC)S(=O)(=O)c1ccc(C(=O)N(c2ccccc2)C2C=CS(=O)(=O)C2)cc1 (stereo unspecified)	.	i	1.3	39	114	101	-4
CCOC(=O)C1CCN(S(=O)(=O)c2cccc3nonc23)CC1	-0.4	i	0.88	.	.	107	12
O=C(CCCN1C(=O)c2ccccc2C1=O)NCCCN1CCOCC1	-1.3	i	1.1	-27	88	104	-7
C=CCN(CC=C)S(=O)(=O)c1ccc2nc(NC(=O)C(C)C)sc2c1	-0.9	i	0.78	29	102	102	-3
COc1ccc(C(C)=O)cc1CSCCC(=O)O	-0.2	i	1.1	.	.	96	11
O=C(CCOc1ccccc1)OCC(=O)c1cc2ccccc2o1	-3.1	i	0.8	.	.	98	-12
CCOC(=O)C1=C(CSCC(=O)OC)NC(=O)NC1c1cc(C)ccc1C (stereo unspecified)	-1.8	i	0.87	-44	85	102	-3
Cc1nc2ccccn2c1C(=O)NN=C1CCN(C)CC1	.	i	0.97	.	.	96	2
COc1cccc(-n2nc(C(=O)N3CC(C)CC(C)C3)c3ccccc3c2=O)c1 (stereo unspecified)	0.9	i	0.93	.	.	98	3
CCNc1nc(Oc2ccc(=O)n(-c3ccccc3)n2)nc(N(C)C)n1	-0.2	i	0.9	-8	62	100	-5
Cn1c(Oc2ccc(Cl)c3cccnc23)nc2c1c(=O)n(Cc1ccccc1Cl)c(=O)n2C	-0.3	i	1	24	87	102	-5
Cc1cc(CNC(=O)COc2ccccc2)c2ccccc2n1	.	i	0.96	33	191	102	-10
CCn1c(O)c(/C=N/N=C/c2ccccc2)c2ccc(C3=NNC(=O)CC3)cc21	-1.5	i	1	.	.	.	-4
COc1ccc2nc(NNC(=O)C3COc4ccccc4O3)sc2c1 (stereo unspecified)	-1.7	.	.	56	73	95	-2
Cn1c(=O)[nH]c(=O)c2c1nc(NC1CCCCC1)n2CC(=O)NC1CCCCC1	-1.5	i	0.79	-16	30	101	101*
COc1ccc2nc(NC(=O)CN(c3ccc(C)cc3)S(=O)(=O)c3c(C)nn(C)c3C)sc2c1	-2.9	i	0.8	.	.	105	8
COC(=O)CSc1nnc(CNC(=O)c2ccccc2OC)n1C	-2.3	i	0.91	.	.	103	-11
Cc1ccc(Nc2nc(C)c(CCC(C)C)c(=O)[nH]2)cc1	0.3	i	0.95	-86	113	100	-9
Cc1cc(C)c2cc(C#N)c(NCCNC(=S)NCCCN3CCOCC3)nc2c1	.	i	0.98	.	.	104	-7
CC(C)(C)NC(=O)CSCc1c(Cl)cccc1Cl	-1.8	i	0.86	8	91	104	-10
O=C(NCC1CCCO1)C(c1cccs1)N(Cc1ccccc1)C(=O)c1ccc(-c2ccccc2)[nH]1 (stereo unspecified)	-2.0	i	0.95	-7	76	26	0
COc1cccc(CN2CCN(Cc3nc(-c4cccc(F)c4F)oc3C)CC2=O)c1	.	i	0.92	.	.	106	6
Cc1ccc(Cc2cnc(N)s2)o1	-0.7	i	1.1	12	108	89	0
c1ccc(Cc2nnc(N3CCCCC3)c3ccccc23)cc1	.	i	0.84	.	.	102	1
